Screens: PubChem, National Center for Advancing Translational Sciences (NCATS)
TRPML1 blocker: human mucolipin-1 channel inhibition. activity change, negative = inhibition, % (no concentration beside the values). Q9GZU1. TRPML1-inducible cells, Ca2+ dye fluorescence, FDSS; hits give low values; inhibition of EC80 agonist-evoked calcium signal. AID 624415. 0.02% of 390,000 active; in the data active means activity change below about -50%; inconclusive means about -30% to -50%; inactive means above about -30%;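 also: stimulus is agonist 54-4 at its EC80 concentration; % is scaled to controls: 0 for no effect and ±100 for the full control effect; compound concentration not given in the record; the text of the record puts the active cut at -80%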
Target sequence (Q9GZU1 whole entry, looked up): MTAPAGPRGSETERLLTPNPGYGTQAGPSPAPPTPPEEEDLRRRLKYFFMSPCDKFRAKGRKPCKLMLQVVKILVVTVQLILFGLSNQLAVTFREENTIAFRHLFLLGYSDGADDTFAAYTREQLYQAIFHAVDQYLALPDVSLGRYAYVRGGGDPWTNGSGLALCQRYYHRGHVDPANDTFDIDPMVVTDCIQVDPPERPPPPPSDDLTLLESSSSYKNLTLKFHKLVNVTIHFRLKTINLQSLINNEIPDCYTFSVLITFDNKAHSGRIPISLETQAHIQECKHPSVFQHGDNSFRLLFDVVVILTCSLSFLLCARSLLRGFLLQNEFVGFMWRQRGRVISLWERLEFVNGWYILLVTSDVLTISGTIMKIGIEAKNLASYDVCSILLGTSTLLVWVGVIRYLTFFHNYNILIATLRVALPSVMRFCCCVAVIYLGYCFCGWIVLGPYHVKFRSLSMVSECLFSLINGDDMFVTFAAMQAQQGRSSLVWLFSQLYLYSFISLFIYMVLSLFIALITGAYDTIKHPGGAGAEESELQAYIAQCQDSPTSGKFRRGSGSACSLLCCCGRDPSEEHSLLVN
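Tet-induced TRPML1-DL cells loaded with Ca8 no-wash calcium dye were read kinetically on FDSS. Compound addition was followed by EC80 agonist 54-4 (4 uM final); inhibition was read over 110 s.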
TRPML1 agonist: agonists of human TRPML1 channel; TRPML1-expressing cells, Ca2+ dye fluorescence, FDSS; host cell line not named in the record; reference of the full effect not given here; activation, % (no concentration beside the values); 0.12% of 410,000 active; in the data active = activation above about 50%; inconclusive = about 30% to 50%; inactive = below about 30%; also: 0% is about no effect; the text of the record puts the active cut at 80%
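TRPML1-DL cells, Tet-induced overnight (~16 h, 37 degrees C), loaded 45-90 min at room temperature with Ca8 no-wash calcium dye plus quencher. FDSS fluorescence: 10 s baseline, compound pin-transfer, 110 s agonist read, then EC80 54-4 (4uM final) and 110 s antagonist read.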
Numbers without * were called inactive; u = inconclusive. This is a subset; count on the stated rates, not on these rows.

The line under a structure holds: TRPML1 blocker, TRPML1 agonist
CCOC(=O)c1c(C)oc2nc(C)nc(NCc3ccc(C)cc3)c12
  -2, -0.4
COc1ccc(-c2nc(CSc3nncn4c3cc3occc34)c(C)o2)cc1
  3, -0.8
COc1cccc(N2CCN(C3=NS(=O)(=O)C(c4ccc(C)cc4)=C3C)CC2)c1
  -1, 1.0
Cc1ccc(N2CC(NC(=O)C3CC3)CC2=O)cc1C (stereo not given)
  13, -0.8
Cc1ccc(NC(=O)N2CCc3c([nH]c4ccccc34)C2c2ccccc2F)c(Cl)c1 (stereo not given)
  11, 0.1
COc1ccc(-c2noc(CCCC(=O)Nc3cccc(Cl)c3C)n2)cc1
  -23, 1.8
CCOC(=O)c1c(S(=O)(=O)N2CCC(C(=O)NCc3ccccc3Cl)CC2)c(C)n(C)c1C
  -12, -1.1
COc1ccc(NC(=O)N(Cc2ccco2)C2CCN(C(C)=O)CC2)c(OC)c1
  -11, -0.7
CC(=O)Nc1cccc(NC(=O)C(=O)NCCc2sc(-c3ccccc3)nc2C)c1
  -6, -1.1
O=C(CN1C(=O)CCSc2ccccc21)Nc1ccc(C(F)(F)F)cc1
  -16, 2.1
CCN(CCCNC(=O)c1ccc(Sc2ccc(Cl)cc2)c(NC(C)=O)c1)c1ccccc1
  -1, 1.3
CCN(C(=O)c1cc2c(=O)oc3ccccc3c2s1)c1ccc(C)c(C)c1
  -3, -0.8
CN(CC(=O)Nc1cccc(C#N)c1)S(=O)(=O)c1cc2c(cc1Cl)NC(=O)CO2
  -22, 0.5
Cc1ccccc1OCCSc1nnc(-c2cccs2)o1
  -10, 0.5
CCN1CCc2c(sc(-n3cccc3)c2C(C)NC(=O)Nc2ccc(Br)cc2)C1 (stereo not given)
  1, 5.3
COc1ccc(-n2ncc(C(=O)N3CCN(c4ccccn4)CC3)c2C2CCN(C(=O)OC(C)(C)C)CC2)cc1
  7, 1.0
Cc1csc2nc(COc3ccc(NC(=O)COc4ccccc4)cc3)cc(=O)n12
  9, -0.6
CCN(CC)CCCNC(=O)CCCn1ncn2c(cc3occc32)c1=O
  10, -0.3
CCCCOc1cccc(C(=O)N(Cc2ccc(N(C)C)cc2)C2CCS(=O)(=O)C2)c1 (stereo not given)
  28, 3.1
Cc1ccccc1CN1CCc2nc(N3CCN(c4ncccn4)CC3)ncc2C1
  22, 0.7
Cc1ccc(-n2ncc3c(Nc4cccc(C)c4)ncnc32)cc1
  12, 1.1
Cc1ccc(-n2ncc3c(NNC(=O)c4ccccc4C)ncnc32)cc1
  -13, 0.4
CCC(Cc1ccccc1)NC(=O)CN1C(=O)COc2ccc(S(=O)(=O)N3CCCCCC3)cc21 (stereo not given)
  13, 0.9
O=C(Nc1cccc(Cl)c1Cl)c1cc(S(=O)(=O)N2CCC3(CC2)OCCO3)ccc1F
  46, 0.6
CCOc1ccccc1NC(=O)C(=O)c1cc(C)n(-c2ccc(F)cc2)c1C
  -6, -0.5
CCCCN(Cc1ccco1)C(=O)c1cc2c(s1)-c1c(C)cccc1OC2
  8, 2.7
CCOc1ccc(S(=O)(=O)NCCc2csc3nc(-c4cccc(C)c4)nn23)cc1
  10, 5.0
COc1ccccc1OC(C)C(=O)Nc1cccc(-c2nc3ccccc3o2)c1 (stereo not given)
  -23, 0.2
COc1ccccc1NC(=O)c1ncn(-c2ccccc2)n1
  11, 3.2
Cc1ccc(-n2ncc(C(=O)NCc3cccs3)c2C2CCN(C(=O)OC(C)(C)C)CC2)cc1C
  0, 0.5
COc1ccc(CCNC(=O)c2ccc3c(c2)sc2nc(-c4ccccc4)cn23)cc1OC
  1, 0.0
CCOC(=O)C1CCN(C(=O)c2ccc3c(c2)sc2nc(-c4ccc(OC)cc4)cn23)CC1
  11, 3.3
COc1cccc(-n2c(=O)c3sc4ccccc4c3n(CC(=O)NC3CCCCC3)c2=O)c1
  2, -0.4
COC(=O)c1ccc(Cl)cc1NC(=O)N1CCC(CN2CCC(C)CC2)CC1
  4, -0.5
Cc1noc(-c2ccc(-c3noc(-c4ccccc4)n3)cc2)n1
  -4, -0.4
Cc1cccc2c(=O)cc(CSc3ccccc3NC(=O)C(C)C)[nH]c12
  -20, 1.9
Cn1nc(C(=O)NCc2ccccc2Cl)c2c1-c1ccccc1SC2
  18, 0.4
CCCOc1ccc(C(=O)N(Cc2ccco2)Cc2ccco2)cc1
  -25, 5.6
CCN(Cc1ccccc1)C(=O)c1sc2nc3n(c(=O)c2c1C)CCCC3
  -13, -0.9
COc1ccc(CN(C)c2ccc(-c3nc(C)no3)cc2[N+](=O)[O-])cc1
  55, 0.1
CCOC(=O)c1cc2c(=O)n3ccccc3nc2n(Cc2ccco2)c1=NC(=O)c1cccc(Br)c1
  11, 2.4
Cc1cccc(C)c1NC(=O)Cn1c(=O)n(Cc2ccccc2)c(=O)c2c(C)c(C(=O)N(C)C)sc21
  -10, 2.2
Cc1ccc2ncc(C(=O)Nc3ccc(F)cc3F)c(=O)n2c1
  -1, -0.4
Cc1ccc(S(=O)(=O)N2CCCC(c3nc4c(nnn4Cc4ccc(OC(F)(F)F)cc4)c(=O)[nH]3)C2)cc1 (stereo not given)
  -16, -0.1
CCCCc1ccc(NC(=O)c2cc3c(=O)n4ccccc4nc3s2)cc1
  -2, 1.0
CCOc1ccccc1NC(=O)C(C)N(c1ccccc1)S(C)(=O)=O (stereo not given)
  -12, -1.1
CCN(c1cccc(C)c1)S(=O)(=O)c1nnc(NC(=O)C2CCCCC2)s1
  0, 3.3
Cc1ccc(-c2nc(C)c(CCNC(=O)C(=O)Nc3ccc(C)c(Cl)c3)s2)cc1
  10, 3.0
COC(=O)c1sc(NC(=O)c2cc3nc(-c4ccc(Br)cc4)cc(C(F)(F)F)n3n2)c(C(=O)OC)c1C
  1, 2.1
Cc1cccc(C(=O)Nc2cccc(OCc3cc(=O)n4cccc(C)c4n3)c2)c1
  -4, 0.2

Next part
The line under a structure holds: TRPML1 blocker, TRPML1 agonist
CC1(C)CC(=O)c2cc(C#N)c(=O)n(-c3ccc(Cl)cc3)c2C1
  2, -0.4
CCC(=O)Oc1c(Sc2ccc(Cl)cc2)c(C)nn1-c1ccccc1
  -1, 0.7
CCCCN(CC)C(=O)c1ccc2c(c1)NC(=O)c1ccccc1S2
  -15, 0.4
Cc1ccc(CNC(=O)N2CCC(CN3CCC(C)CC3)CC2)cc1
  9, -0.7
Cc1nn(CC(=O)N2CCN(c3ccccc3)CC2)c(=O)c2cc3cc(F)ccc3n12
  18, -1.0
COc1ccc(Cl)cc1NC(=O)CSc1nnc(C)n2c1cc1occc12
  -10, -1.1
CCC(C)NC(=O)CSc1nc2cc3c(cc2c(=O)n1CCCCCC(=O)NCc1ccc(OC)cc1)OCO3 (stereo not given)
  7, 1.1
Cc1ccc(C)c(CN2C(=O)c3ccccc3Sc3ccc(C(=O)NC4CCCC4)cc32)c1
  9, 3.0
Cn1c(=O)[nH]c(=O)c2c1nc1n2CCN1c1ccccc1
  -9, -0.8
Cc1c(C(=O)Nc2ccccc2Cl)oc2ccc(S(=O)(=O)N3CCCCCC3)cc12
  -16, -0.7

Of the compounds above, these have a tert-butyl group.
The line under a structure holds: TRPML1 blocker, TRPML1 agonist
COc1ccc(-n2ncc(C(=O)N3CCN(c4ccccn4)CC3)c2C2CCN(C(=O)OC(C)(C)C)CC2)cc1
  7, 1.0
Cc1ccc(-n2ncc(C(=O)NCc3cccs3)c2C2CCN(C(=O)OC(C)(C)C)CC2)cc1C
  0, 0.5

Additional results follow.
The line under a structure holds: TRPML1 blocker, TRPML1 agonist
CCc1ccc(-c2[nH]nc3nc(-c4ccc(OC)cc4)cc(C(=O)NCCc4ccc(OC)c(OC)c4)c23)cc1
  4, 0.5
Cc1ccc2occ(CC(=O)Nc3nnc(C(C)C)s3)c2c1
  -4, 0.5
O=C(NCc1c(-n2cccc2)sc2c1CCCC2)Nc1cccc(C(F)(F)F)c1
  1, 0.2
Cc1ccc(C(=O)c2cn(Cc3ccccc3F)c3cc4c(cc3c2=O)OCO4)cc1
  20, 2.5
COc1ccc(Nc2oc(-c3ccc(COc4ccccc4C)o3)nc2C#N)cc1
  -6, 1.5
Cc1noc2ncnc(N3CCN(c4ccccc4F)CC3)c12
  1, 0.2
N#Cc1ccc(C(=O)Nc2ccc3c(c2)N(C2CCCC2)C(=O)c2ccccc2S3)cc1
  u, 1.3
COc1ccccc1C(=O)N1CCN(Cc2cc(=O)oc3cc(C)ccc23)CC1
  3, 0.7
CC(=O)C1=C(OC(=O)C(C)C)c2ccccc2S(=O)(=O)N1Cc1ccccc1
  -7, -0.2
COC(=O)c1ccc(NC(=O)CC2C(=O)N(c3cccc(OC)c3)C(=O)N2Cc2ccco2)cc1 (stereo not given)
  10, -0.4
CC(=O)c1ccc(NC(=O)CCc2c(C)nn(-c3ccc(N4CCCCC4)nn3)c2C)cc1
  -7, -0.6
CCC(=O)Nc1ccccc1-c1nc2ccccc2n(CC(=O)c2ccc(Br)cc2)c1=O
  -24, 1.1
COCCNC(=O)CCn1c(=O)[nH]c2cc(OC)c(OC)cc2c1=O
  3, -0.3
Cc1c(Cl)cccc1-n1ncc(C(=O)NCCN2CCN(C)CC2)c1C1CCN(C(=O)OC(C)(C)C)CC1
  6, 2.7
COc1ccc(-c2nc3ccc(NS(=O)(=O)c4ccc(Cl)cc4)cc3o2)cc1
  -6, 1.9
CCOc1ccc(NC(=O)CCn2c(=O)c3cccn3c3cccnc32)cc1
  20, -0.5
CCCC(=O)N(c1ccc2oc(-c3ccccc3)c(C(=O)OCC)c2c1)S(=O)(=O)c1ccc(C)cc1
  2, 0.5
CCCN1C(=O)C(Cc2nc3ccccc3c(=O)n2CC)c2ccccc21 (stereo not given)
  -5, 1.5
O=C(CCS(=O)(=O)c1nc(-c2cccs2)cc(C(F)(F)F)n1)Nc1ccc(F)c(Cl)c1
  19, 0.6
CCOC(=O)c1ccc(NC(=O)c2nsc3ccccc23)cc1
  -13, 1.5
CCC(=O)N1CCc2cc(CNS(=O)(=O)c3ccccc3F)ccc21
  -5, -0.2
Cc1ccc(Cn2c(CCCNC(=O)c3ccco3)nc3ccccc32)cc1
  14, -1.0
CCCN1C(=O)c2[nH]nc(-c3ccc(F)cc3)c2C1c1ccccn1 (stereo not given)
  -17, 1.2
COc1ccccc1CNC(=O)C1(c2cccs2)CCOCC1
  -6, -0.2
CCOc1ccc(NC(=O)NCCCN2CCN(c3ccc(F)cc3)CC2)cc1
  6, -0.8
O=C(NCCc1ccccc1)C(=O)NCC(c1ccco1)S(=O)(=O)c1ccccc1 (stereo not given)
  5, 1.0
CCc1ccc(C2c3c(oc4ccc(F)cc4c3=O)C(=O)N2CCc2ccc(OC)cc2)cc1 (stereo not given)
  9, 0.9
O=C(NCc1ccc(F)cc1)c1cc2c(=O)n3ccccc3nc2s1
  -5, 0.7
COc1ccc2c(c1)c1c(c(=O)n(-c3ccc(OC)c(OC)c3)c(=O)n1Cc1ccc(C)cc1)n2C
  -7, -0.2
CCCCSc1nnc2c(n1)OC(c1ccc(C)s1)Nc1ccccc1-2 (stereo not given)
  0, 1.1
CCOC(=O)c1cc(S(=O)(=O)NCc2ccc(F)cc2)[nH]n1
  -21, 0.5
O=S(=O)(NCc1ccc(F)cc1)c1ccc2[nH]c3c(c2c1)CCCCC3
  -3, -0.7
CCOC(=O)c1c(NC(=O)c2ccc(S(=O)(=O)N(CC(C)C)CC(C)C)cc2)sc2c1CCN(C(=O)OCC)C2
  12, 0.2
COc1ccc(CNC(=O)c2ccc(-c3nc(CSc4ccccc4)c(C)o3)cc2)cc1
  7, -0.3
Cc1ccc(-c2nc(SCC(=O)NCC3CCCO3)c3c(=O)n(C)c(=O)n(C)c3n2)cc1 (stereo not given)
  -13, -0.5
COc1ccc(CNC(=O)Cn2nc3c(cc2=O)CCCC3)cc1
  -1, -0.4
Fc1cccc(Cl)c1CNc1n[nH]c(-c2ccco2)n1
  4, 0.5
CCC1CCc2nc3sc(C(=O)Nc4ccc(C)cc4C)c(N)c3cc2C1 (stereo not given)
  30, -1.0

Pulled one by one from the list above (6):
The line under a structure holds: TRPML1 blocker, TRPML1 agonist
COc1ccc(CNC(=O)c2ccc(-c3nc(CSc4ccccc4)c(C)o3)cc2)cc1
  7, -0.3
CCOC(=O)c1cc(S(=O)(=O)NCc2ccc(F)cc2)[nH]n1
  -21, 0.5
CCC1CCc2nc3sc(C(=O)Nc4ccc(C)cc4C)c(N)c3cc2C1 (stereo not given)
  30, -1.0
Cc1ccc(-c2nc(SCC(=O)NCC3CCCO3)c3c(=O)n(C)c(=O)n(C)c3n2)cc1 (stereo not given)
  -13, -0.5
O=S(=O)(NCc1ccc(F)cc1)c1ccc2[nH]c3c(c2c1)CCCCC3
  -3, -0.7
CCOC(=O)c1c(NC(=O)c2ccc(S(=O)(=O)N(CC(C)C)CC(C)C)cc2)sc2c1CCN(C(=O)OCC)C2
  12, 0.2
